PABP FP inh: blocks human PABP binding to poly(A) RNA; P11940; fluorescence polarization; inhibition, % at 35 µM; 1% of 290,000 active;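 active = 50% or more with normal probe brightness, or confirmed in later tests; inconclusive = above 50% with abnormal brightness, or retests that disagree; inactive = below 50% or failed in later tests; about a fifth of its hits are not listed in these tables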;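 also: calls also rest on retests at 20 µM and on dose response follow-up; controls were probe without protein and protein plus probe with vehicle; some compounds called inactive have numbers as strong as hits; many hits fall short of the cut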
Target sequence (P11940 whole entry, looked up): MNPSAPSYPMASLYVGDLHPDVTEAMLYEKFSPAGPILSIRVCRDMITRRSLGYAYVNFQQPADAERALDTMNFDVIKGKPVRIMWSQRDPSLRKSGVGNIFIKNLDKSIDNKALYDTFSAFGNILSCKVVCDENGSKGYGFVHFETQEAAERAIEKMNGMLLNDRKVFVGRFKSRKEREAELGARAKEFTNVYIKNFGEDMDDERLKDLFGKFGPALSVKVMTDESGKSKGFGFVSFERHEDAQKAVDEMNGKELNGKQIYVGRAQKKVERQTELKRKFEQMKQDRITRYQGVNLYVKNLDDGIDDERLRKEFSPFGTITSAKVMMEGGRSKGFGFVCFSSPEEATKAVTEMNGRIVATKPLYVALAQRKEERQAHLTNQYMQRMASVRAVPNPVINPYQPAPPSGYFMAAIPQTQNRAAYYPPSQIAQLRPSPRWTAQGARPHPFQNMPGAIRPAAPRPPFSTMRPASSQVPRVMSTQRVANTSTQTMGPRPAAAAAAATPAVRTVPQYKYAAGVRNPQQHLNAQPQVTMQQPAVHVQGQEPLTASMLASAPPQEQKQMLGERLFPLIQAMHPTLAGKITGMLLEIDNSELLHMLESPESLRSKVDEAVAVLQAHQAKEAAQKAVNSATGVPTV
HIV Env fusion: blocks HIV Env-driven cell-cell fusion. HeLa-JRFL Env/CEM21 cell fusion, luciferase. inhibition, % at 12.3 µM. 1.1% of 360,000 active;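 active = mean replicate inhibition score of at least 50 and every replicate individually at or above 50; inconclusive = only one of the two criteria met; inactive = mean below 50 and not all replicates reaching 50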;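 also: 0% = plate neutral controls and 100% = maraviroc near 300 nM; one replicate is shown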
eIF4H inh: inhibitors of RNA binding by human eIF4H; Q15056; inhibition, % at 35 µM; 0.94% of 290,000 active; eIF4H fluorescence polarization binding assay;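 active = 50% or more with normal probe brightness, or confirmed in later tests; inconclusive = above 50% with abnormal brightness, or retests that disagree; inactive = below 50% or failed in later tests; about a fifth of its hits are not listed in these tables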;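 also: calls also rest on retests at 20 µM and on dose response follow-up; 0% = protein and probe with vehicle and 100% = probe without protein; strong numbers were not always called active; many hits fall short of the cut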
Rce1 inhib: yeast Ras-converting enzyme inhibition; AID 2563; calls only; yeast membranes, quenched prenylated peptide cleavage fluorescence; 0.27% of 290,000 active;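 active = fall in fluorescence gain of 50% or more versus controls, with final raw signal at or below 3038400; inconclusive = same 50% fall but final raw signal above 3038400; inactive = fall in fluorescence gain under 50%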;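 also: plate controls were neutral control wells for no effect and wells lacking membranes for full effect; tested at 10 µM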
Target sequence (Q03530 whole entry, looked up): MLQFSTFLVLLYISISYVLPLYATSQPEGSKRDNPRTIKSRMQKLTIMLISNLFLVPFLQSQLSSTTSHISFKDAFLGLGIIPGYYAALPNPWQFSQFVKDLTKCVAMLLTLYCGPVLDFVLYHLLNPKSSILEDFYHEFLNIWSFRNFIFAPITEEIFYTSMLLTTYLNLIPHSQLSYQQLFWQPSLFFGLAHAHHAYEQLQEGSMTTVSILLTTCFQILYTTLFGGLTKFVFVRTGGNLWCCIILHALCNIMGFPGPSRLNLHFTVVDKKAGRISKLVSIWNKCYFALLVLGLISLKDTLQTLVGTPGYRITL
CSC inhib: blocks cancer stem cells; cancer stem cell-like cells viability, luminescence; inhibition, % at 7.5 µM; 1.1% of 300,000 active; AID 2717;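 active = mean at 75% or more and at least half the replicates too; inconclusive = mean and replicates disagree; tested in HMLE shEcad cells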;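 also: 0% = median of negative and 100% = median of positive control wells; the first replicate is given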
MT1-MMP act inh: blocks activation of human MT1-MMP | P50281 | HT1080 RFP-PRO-GFP cells, GFP/RFP ratio fluorescence, overnight; percent of plate control window, DMSO zero | GFP/RFP ratio change, % at 20 µM | 0.061% of 360,000 active | AID 651647;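 active = GFP/RFP ratio change of at least 30% with cell ATP level not reduced by more than half and red fluorescence within 50% of control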; also: strong numbers were not always called active
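Test system: HT1080 cells expressing an RFP-PRO-GFP fluorescent reporter construct / Compound dosing: single-point 20 µM compound, 1% DMSO / Schedule: cells overnight before dosing, compound overnight, 37 °C, 5% CO2 / Evaluation: GFP/RFP fluorescence ratio / Control set: DMSO and RFP-L50D-GFP cell wells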
Yeast UUG start: yeast start codon fidelity modulation; S. cerevisiae UUG-firefly luciferase reporter, luminescence/redox ratio; activity score, % at 18.7 µM; 0.13% of 350,000 active;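 active = replicate mean at a twofold rise or more, about +100% in these data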;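 also: firefly luciferase made from a UUG start codon reports start codon fidelity; reporter light over untreated wells divided by growth signal over untreated wells; some hits fall short of that in this replicate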
eIF4H inh retest: further read-out of eIF4H inh, marked with its call; inhibition, %; compound at 20 µM; confirmation average;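 mean of two retest wells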
PABP FP inh retest: second read-out of PABP FP inh, no call of its own (marks repeat the call); inhibition, %; compound at 20 µM; confirmation repeats;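 mean of two retest wells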
MT1-MMP act inh RFP: further read-out of MT1-MMP act inh, marked with its call; RFP signal change, %; measured here: RFP expression control read;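 0 = vehicle wells; hits needed this value within 50% of zero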
An asterisk follows results filed as active; i = inactive; u = inconclusive; x = not tested or not shown; & = joins results of further samples; [ ] = another dose, or the depositor's remark.

SMILES | PABP FP inh | HIV Env fusion | eIF4H inh | Rce1 inhib | CSC inhib | MT1-MMP act inh | MT1-MMP act inh RFP | Yeast UUG start | others
CC(C)NS(=O)(=O)c1cccc2nsnc12 | -9 | x | 2 | i | 12 | -4 | -6 | -8
Clc1ccc(CSc2nnc3ccccn23)c(Cl)c1 | 11 | -12 | -4 | i | -3 | 16 | 8 | x
CC(=O)N/C(=C\c1cccc([N+](=O)[O-])c1)C(=O)NC1CCCCC1 | 15 | x | -1 | i | 11 | -2 | 3 | -7
CCOC(=O)c1sc(NC(=O)CSc2nnnn2-c2ccccc2)nc1C | 10 | x | -1 | i | -15 | -5 | -2 | -3
O=C(NC1CCS(=O)(=O)C1)c1cccc(Cl)c1 (stereo not drawn) | x | -1 | x | i | 10 | -1 | 4 | -6
CCC(C)(C)c1ccc(Oc2ccc(NC(=O)COC(=O)C3=COCCO3)cc2)cc1 | 0 | 47 | 0 | i | 103* | -4 | -13 | -5
O=C(Nc1ccc(Cl)cc1Cl)C1CCC(=O)N1Cc1ccccc1Cl (stereo not drawn) | 3 | x | -4 | i | -5 | 2 | 2 | -11
O=C(Cc1ccc([N+](=O)[O-])cc1)Nc1cccc(C(=O)N2CCOCC2)c1 | x | 3 | x | x | -15 | 0 | -3 | -15
CCOCCCn1c(=NC(C)=O)c(C#N)cc2c(=O)n3cccc(C)c3nc21 | u | 2 | u | i | -7 | -4 | 3 | 5
COc1ccc(C(=O)c2ccc(Cl)c([N+](=O)[O-])c2)cc1 | -5 | -18 | -14 | i | 38 | 7 | -14 | x
O=C(NCc1cccnc1)c1nnc(Cc2ccc(F)cc2)o1 | 4 | 1 | 2 | i | -10 | 3 | 6 | -12
O=C(CCN1CCCCC1)N=Nc1c(O)[nH]c2ccccc12 | -13 | 12 | 3 | i | 11 | -5 | -1 | x
Nn1cc(-c2ccccc2)nc1SCC(=O)N1CCN(S(=O)(=O)c2ccc(Cl)cc2)CC1 | -1 | 18 | -1 | i | -2 | 8 | -1 | -4
O=c1c(-c2cc3ccccc3o2)[n+]([O-])c2ccccc2n1OCc1ccccn1 | 61* | -70 | 85 | i | -3 | -5 | -1 | -5 | eIF4H inh retest=24;PABP FP inh retest=50*
CC1CCCCN1S(=O)(=O)c1ccc(C(=O)Nc2nnc(-c3cccs3)o2)cc1 (stereo not drawn) | 2 | 80* | 16 | i | 1 | 0 | 1 | -34

2 successive entries out of the list so far, quoted:
SMILES | PABP FP inh | HIV Env fusion | eIF4H inh | Rce1 inhib | CSC inhib | MT1-MMP act inh | MT1-MMP act inh RFP | Yeast UUG start | others
CC(C)NS(=O)(=O)c1cccc2nsnc12 | -9 | x | 2 | i | 12 | -4 | -6 | -8
Clc1ccc(CSc2nnc3ccccn23)c(Cl)c1 | 11 | -12 | -4 | i | -3 | 16 | 8 | x

The results go on.
SMILES | PABP FP inh | HIV Env fusion | eIF4H inh | Rce1 inhib | CSC inhib | MT1-MMP act inh | MT1-MMP act inh RFP | Yeast UUG start | others
CCC(=O)Nc1ccc(S(=O)(=O)NCCc2ccccc2)cc1 | 2 | 14 | -1 | x | -11 | 8 | -4 | -20
COc1ccc(S(=O)(=O)NC2CC(=O)N(c3cccc(F)c3)C2)cc1OC (stereo not drawn) | x | 8 | x | i | 13 | 0 | 3 | -16
COc1ccc(O)c(C(c2c(C)[nH][nH]c2=O)c2c(C)[nH][nH]c2=O)c1 | 6 | 3 | -9 | i | -18 | 2 | 1 | x
NC(=O)c1ccsc1NC(=O)CSc1ccccc1F | -4 | x | 14 | i | -6 | 5 | -3 | -6
Cn1c2ccc(Br)cc2c2nnc(SCC(=O)O)nc21 | 20 | 2 | -4 | i | 7 | 2 | 6 | 6
CCOCCCNC(=S)Nc1ccc(Br)cc1Cl | -5 | 18 | -3 | i | -12 | 3 | -1 | -26
Cc1nc(SCc2ccc(F)cc2)c([N+](=O)[O-])[nH]1 | 8 | x | -8 | i | -1 | 5 | 3 | -17
Cc1nc(NCC2CCCO2)nc2c1C(=O)CC(C)C2 (stereo not drawn) | 6 | x | -1 | i | -7 | 1 | -5 | -7
CSCCC(NC(=O)c1ccccc1)C(=O)N/N=C(\C)Cc1ccccc1 (stereo not drawn) | 4 | 4 | 6 | i | 12 | -1 | 5 | -6
Cc1ccc(F)c(S(=O)(=O)NC(=O)C2(C)CCN2C(=O)C2(c3ccc(Cl)cc3)CCC2)c1 (stereo not drawn) | x | 7 | x | x | x | -2 | -2 | -18
Cc1cccc2nc(C(=O)Nc3cc(Cl)ccc3-n3cncn3)cn12 | x | 4 | x | x | x | 2 | 1 | -25
CCCCNC(=O)C(CC)(ONc1ccccc1C(F)(F)F)c1ccccc1 (stereo not drawn) | x | 1 | x | x | 38 | -6 | -7 | -3
CCC(=O)N[C@@H]1CC[C@@H](CCNC(=O)Nc2ccc(F)cc2)O[C@@H]1CO | x | 1[16.7 µM] | x | x | x | -3 | 0 | -6
COc1ccccc1-n1cc(CN2CCN(C3CCCC3)C(CCO)C2)cn1 (stereo not drawn) | -8 | 12 | 0 | i | 33 | 0 | 0 | x
Cc1ccc(C)c(NC(=O)CCC(=O)NNC(=S)Nc2ccccc2)c1 | -7 | 14 | -10 | i | -11 | 3 | 5 | x
CN(NC(=O)c1ccc(Cl)cc1)c1nc(-c2ccccc2)nnc1C(F)(F)F | -9 | x | -6 | i | 28 | 7 | -5 | -6
CCOCCCNC(=O)Cn1cc2c(n1)CCCC2 | 10 | -25 | -7 | i | -10 | 0 | 2 | -7
O=C(CCCN1C(=O)/C(=C/c2cccs2)SC1=S)Nc1ccccc1O | 7 | 8 | 6 | i | x | 6 | 7 | -16
COc1cc(/C=C(\C#N)c2ccccn2)ccc1OCc1ccc(Cl)cc1 | -6 | x | -1 | i | 20 | -3 | -3 | x
CCN(CC)c1ccc(NC(=O)C2=CC=CN3CCS(=O)(=O)N=C23)cc1 | x | -6 | x | x | -13 | 3 | 5 | -16
CCN(CC)c1nc(N)nc(NS(=O)(=O)c2ccc(Cl)cc2)n1 | 7 | -84 | 1 | i | -10 | -1 | 0 | -2
CC1(C)C2CCC(C2)C1(C)NC(=O)CNCc1cccs1 (stereo not drawn) | 58 | 28 | 1 | i | 1 | -4 | -1 | x | eIF4H inh retest=-1;PABP FP inh retest=-5
O=C(CSCc1c(Cl)cccc1Cl)NCC1CCCO1 (stereo not drawn) | -1 | -37 | 2 | i | -1 | 2 | 7 | -21
Cc1ccc(Cl)c(Nc2ccccc2C(=O)O)c1Cl | -13 | 5&-44 | 1 | i | x | 3&2 | 2&6 | -8&-24&1
O=C(c1ccccc1NS(=O)(=O)c1ccccc1[N+](=O)[O-])N1CCCC1 | 2 | 6 | 1 | x | 2 | -4 | -1 | -4
CCN1CCN(Cc2ccc(NC(=O)c3cc(NC(=O)c4cnnc5ccccc45)cc(OC)c3)cc2C(F)(F)F)CC1 | 2 | -23 | -3 | i | 2 | 9&5 | -1&0 | 23&-14
CSc1ccc(Cl)c(C(=O)OCC(=O)NCc2ccco2)c1 | 18 | x | 33 | i | 8 | -3 | -5 | -9
COc1cc(NC(=O)C/C(C)=N/NC(=O)C(OC)c2ccccc2)c(OC)cc1Cl (stereo not drawn) | 2 | 15 | 12 | i | -16 | 0 | -1 | -10
CCCOc1ccccc1/C=N/Nc1ccnc(=O)[nH]1 | 8 | -2 | 11 | i | -4 | 1 | 0 | -34
CC1=C(C(=O)OC2CCCCCC2)C(c2ccc(C)o2)C2=C(CCCC2=O)N1 (stereo not drawn) | -2 | x | 1 | i | 12 | -1 | -6 | -6
COc1cc(OC)c(C2=NOC(C(=O)N3CCCc4ccccc43)C2)cc1Cl (stereo not drawn) | 0 | 2 | -3 | x | -6 | 5 | -4 | -10
S=c1[nH]nc(C2(c3ccccc3)CCCC2)o1 | 15 | -121 | 3 | i | -9 | 4 | 4 | x
O=C(CN1CCN(c2ccc(F)cc2)CC1)N1CCOCC1 | 4 | x | -1 | i | -2 | 3 | 4 | 6
Cc1ccc(NC(=O)c2cc(-c3cc(F)ccc3OCC3CCCO3)n[nH]2)cc1NS(C)(=O)=O (stereo not drawn) | x | 19 | x | x | x | -3 | -4 | -31
COCC(C)NS(=O)(=O)c1ccc(OC)cc1 (stereo not drawn) | 0 | -24 | -2 | i | x | 4 | 5 | -12
Cn1c(=O)c2ncn(CC(=O)NCCOc3ccc(C(C)(C)C)cc3)c2n(C)c1=O | 40 | x | -1 | i | x | 2 | -2 | -1
O=C(c1cc(S(=O)(=O)N2CCN(c3ccccc3)CC2)ccc1Cl)N1CCCC(C(F)(F)F)C1 (stereo not drawn) | x | x | x | i | x | 7 | -31 | -12
CCCCN(C(=O)c1[nH]c(C)c(C(C)=O)c1C)c1c(N)n(CCCC)c(=O)[nH]c1=O | x | -8 | x | i | -7 | 3 | 9 | x
Cc1c(-c2nc(N)nc(Nc3ccccc3F)n2)oc2ccccc12 | 11 | -391 | 12 | i | -1 | 1 | -4 | -19
CCN(CC)S(=O)(=O)c1cccc(-c2nnc(SCC(N)=O)n2C)c1 | -6 | 10 | -1 | i | -12 | 4 | 7 | -9
Cc1oc(-c2ccccc2)cc1C(=O)Nc1cccc(/C=C/C(=O)O)c1 | 3 | -4 | 7 | i | x | -5 | -4 | x
O=C(O)c1n[nH]c2c1CC(C1CCCCC1)CC2 (stereo not drawn) | x | -11 | x | x | -4 | 1 | 3 | -25
C=CCNC(=O)NC(=O)CSc1nc2cc([N+](=O)[O-])ccc2n1-c1cccc(C(F)(F)F)c1 | -7 | -8 | -8 | i | -6 | 4 | 2 | 56
CCOc1ccc(NS(=O)(=O)c2ccc(C(=O)NCC(C)(C)N3CCOCC3)cc2)cc1 | x | 3 | x | i | 15 | -4 | -3 | -21
CCCOC(=O)C1C2C=CC3(CN(c4ccc(Cl)c(F)c4)C(=O)C13)O2 (stereo not drawn) | -4 | -9 | -7 | i | -13 | 0 | 3 | -12
COc1ccc(-n2c(-c3ccccc3)cc3c2CCCC3=O)cc1 | 0 | x | -14 | i | 37 | 6 | -3 | -2
CCN1CCCC1Cn1cnc2c([nH]c3ccc(C)cc32)c1=O (stereo not drawn) | -8 | -70 | -12 | i | 3 | 8 | 1 | 2
O=C(NCc1ccco1)C(=O)c1cn(CC(=O)N2CCCCC2)c2ccccc12 | 2 | -1 | -1 | i | -12 | 2 | 4 | x
Nn1c(SC/C=C/c2ccccc2)nnc1-c1ccco1 | 5 | 16 | 1 | i | -6 | 0 | 3 | x
COc1ccccc1N1CCN(CCN2C(=O)CC3(CCCC3)CC2=O)CC1 | x | -27 | x | i | -2 | -1 | -1 | 7
CC(=O)n1cc(/C=N/NC(=O)c2ccc([N+](=O)[O-])cc2)c2ccccc21 | -4 | -1 | -1 | i | 19 | 5 | 4 | -12
CCOC(=O)C[C@H]1c2ccccc2S(=O)(=O)N1Cc1cccc(C(F)(F)F)c1 | x | 18 | x | i | 2 | 6 | -1 | 5
COc1ccccc1NC(=O)CSc1nnc(CNC(=O)c2ccco2)n1C | 7 | -3 | 7 | i | -12 | 1 | 0 | -12
COCCCNS(=O)(=O)c1ccc2[nH]c3c(c2c1)CCCCC3 | 3 | 11 | -12 | i | -12 | 1 | -8 | -14
COc1ccccc1C1=NC(c2ccccc2)CN1c1ccccc1 (stereo not drawn) | 8 | 10 | 7 | i | 1 | -5 | -3 | -11
Cc1onc(-c2ccccc2)c1C(=O)Nc1nnc(-c2ccncc2)s1 | -4 | 4 | -5 | i | 7 | 3 | -3 | -3

Screens: PubChem BioAssay, several laboratories
